Assay outcomes deposited in PubChem by National Center for Advancing Translational Sciences (NCATS).
TRPML1 agonist: human mucolipin-1 channel agonism; Q9GZU1; TRPML1-expressing cells, Ca2+ dye fluorescence, FDSS; host cell line not named in the record; reference of the full effect not given here; activation, % (concentration not given with the values); 410,000 tested, 0.12% active; in the data active = activation above about 50%; inconclusive = about 30% to 50%; inactive = below about 30%; note: 0% is about no effect; the text of the record puts the active cut at 80%
Target sequence (Q9GZU1 whole entry, looked up): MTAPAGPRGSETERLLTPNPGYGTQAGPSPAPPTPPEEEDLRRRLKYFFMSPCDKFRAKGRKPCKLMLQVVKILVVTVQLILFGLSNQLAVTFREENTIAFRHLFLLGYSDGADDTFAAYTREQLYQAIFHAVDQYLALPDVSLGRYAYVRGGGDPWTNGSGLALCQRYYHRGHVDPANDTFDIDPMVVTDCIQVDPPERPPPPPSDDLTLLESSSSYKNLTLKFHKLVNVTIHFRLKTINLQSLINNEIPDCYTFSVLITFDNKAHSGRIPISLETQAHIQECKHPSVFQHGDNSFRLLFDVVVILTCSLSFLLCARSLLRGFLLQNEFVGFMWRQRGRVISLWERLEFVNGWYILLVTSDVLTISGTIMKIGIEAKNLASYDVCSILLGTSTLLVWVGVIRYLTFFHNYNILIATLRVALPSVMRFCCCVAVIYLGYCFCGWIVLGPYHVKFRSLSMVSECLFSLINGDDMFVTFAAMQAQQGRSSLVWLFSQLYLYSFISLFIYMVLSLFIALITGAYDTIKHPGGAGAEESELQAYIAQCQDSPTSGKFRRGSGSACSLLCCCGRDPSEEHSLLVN
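Calcium fluorescence on an FDSS kinetic reader gave the read-out. Tet-induced TRPML1-DL cells were plated overnight, dye-loaded (Ca8 with quencher, 45-90 min, room temperature, dark), then read 110 s after compound addition, and again 110 s after 4uM final 54-4 (EC80).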
TRPML1 blocker: blocks the human TRPML1 channel; Q9GZU1; TRPML1-inducible cells, Ca2+ dye fluorescence, FDSS; hits give low values; inhibition of EC80 agonist-evoked calcium signal; activity change, negative = inhibition, % (test concentration not listed); 390,000 tested, 0.02% active; AID 624415; in the data active means activity change below about -50%; inconclusive means about -30% to -50%; inactive means above about -30%;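 note: stimulus is agonist 54-4 at its EC80 concentration; % is set by controls: 0 for no effect and ±100 for the full control effect; compound concentration not given in the record; the text of the record puts the active cut at -80%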
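Tet-induced TRPML1-DL cells loaded with Ca8 no-wash calcium dye were read kinetically on FDSS. Compound addition was followed by EC80 agonist 54-4 (4 uM final); inhibition was read over 110 s.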
D2 ag: human D2 receptor agonism in beta-arrestin assay; AID 624465; activation, % (no concentration beside the values); DiscoveRx PathHunter D2 beta-arrestin, luminescence, 90 min; 100% = 57 uM dopamine signal; 360,000 tested, 0.084% active; in the data active = activation above about 40%; inconclusive = about 15% to 40%; inactive = below about 15%; note: compound concentration not given in the record; the text of the record calls up to 30% inactive
Target sequence (P14416 whole entry, looked up): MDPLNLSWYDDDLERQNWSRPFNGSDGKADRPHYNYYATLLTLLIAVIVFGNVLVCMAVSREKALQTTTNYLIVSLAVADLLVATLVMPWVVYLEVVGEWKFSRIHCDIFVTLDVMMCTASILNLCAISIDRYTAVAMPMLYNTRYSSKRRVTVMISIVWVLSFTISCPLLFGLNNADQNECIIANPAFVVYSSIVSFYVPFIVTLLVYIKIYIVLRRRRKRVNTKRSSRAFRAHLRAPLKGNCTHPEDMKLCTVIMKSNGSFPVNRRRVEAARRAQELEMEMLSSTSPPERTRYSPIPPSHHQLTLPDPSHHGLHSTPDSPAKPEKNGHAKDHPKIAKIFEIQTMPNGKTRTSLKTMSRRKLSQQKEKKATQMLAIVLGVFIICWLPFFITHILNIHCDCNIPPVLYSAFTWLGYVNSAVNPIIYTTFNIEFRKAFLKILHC
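Agonist mode: compounds alone added to overnight-plated D2 PathHunter cells for 90 min at 37 C, with 57 uM final dopamine (EC100) defining full response. Beta-arrestin recruitment detected by chemiluminescent reagent, read after 1 h at ambient temperature.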
Six1-Eya2 inh: blocks human Six1 binding to Eya2; activity change, % (no concentration beside the values); 360,000 tested, 0.56% active; AlphaScreen GST-Six1/His-Eya2 binding, biochemical; hits give low values; control for the full effect not named in the record; in the data active = activity change below about -65%; inconclusive = about -30% to -65%; inactive = above about -30%; note: % is set by controls: 0 for no effect and ±100 for the full control effect; compound concentration not given in the record
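AlphaScreen luminescence read after one hour at 37 °C in darkness. Pin-transferred compounds met GST-Six1 and His-Eya2 protein (5X stock 250 nM/500 nM) plus glutathione donor and Ni-chelate acceptor beads (5X, 50 ug/mL).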
PINK1 modulator: modulators of PINK1 expression | PINK1 immunofluorescence, high-content cytometry, 24 h | Potency, µM (top dose mostly 76.6 µM), for inactives: at the highest dose activation (PINK1 increase), actives largely listed as activators | 410,000 tested, 0.2% active; active = well fitted activation curve with a large enough effect; inconclusive = small, poorly fitted or top-dose-only effect; inactive = flat fitted curve, though single readings scatter; cell line not stated here;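 note: potency is the fitted concentration of half-maximal effect; % of control where 0% means no effect; nearly all actives have a fitted effect of over 65% in size; a mitochondrial uncoupler was the plate control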
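Readout is PINK1 immunofluorescence, quantified alongside mitochondrial, cell and nuclear markers by laser-scanning microplate cytometry. Cells from a stable line were exposed to compound titrations (5 concentrations) for 24 hours, with CCCP controls.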
D2 PAM: human D2 receptor positive allosteric modulation. P14416. DiscoveRx D2 beta-arrestin cells, luminescence, 90 min; 100% = 57 uM dopamine signal. potentiation, % (no concentration beside the values). 360,000 tested, 0.23% active; active = potentiation of 50% or more; inconclusive = 30% to 50%; inactive = 30% or less;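 note: compound concentration not given in the record; tested on top of an EC20 dose of dopamine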
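PathHunter D2 cells, attached overnight at 37 deg C, received compound in DMSO plus dopamine at EC20 (50 nM final) for 90 min at 37 deg C. Beta-arrestin recruitment was read as luminescence after 1 h with detection reagent at ambient temperature.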
Active calls of the source: *; ? = inconclusive; / = not tested or not shown; & = joins results of further samples; [ ] = remark or other dose.

nr	SMILES	D2 ag	TRPML1 agonist	TRPML1 blocker	PINK1 modulator	D2 PAM	Six1-Eya2 inh
1	COc1ccc2c(c1)C1CC(C)(NC(=O)C1C(=O)c1ccccc1)O2 (stereo unspecified)	-1.2	0.8	5	-1.1%	-20	3
2	Cc1onc(-c2c(F)cccc2Cl)c1C(=O)Nc1nccs1	-1.0	-0.3	-18	3.2%	17	4
3	Cc1ccc(NC(=O)C2CCN(S(=O)(=O)c3ccc4c(c3)NC(=O)C(C)S4)CC2)c(Cl)c1 (stereo unspecified)	2.8	1.3	7	5.6%	-5	-7
4	CC1(C)Cc2cccc(Oc3ccc(S(=O)(=O)N4CCCCC4)cn3)c2O1	4.3	1.2	9	0.4%	-1	4
5	COC(=O)C1=C(C)N(C)C(=S)NC1c1cc(OC)ccc1OC (stereo unspecified)	0.6	0.5	23	1.4%	10	10
6	CC(C)CN(C(=O)COC(=O)CCSc1ccc(F)cc1)c1c(N)n(Cc2ccccc2)c(=O)[nH]c1=O	-0.7	-0.2	6	4.9%	-3	-4
7	CC1=NN(C(N)=S)C(=O)C1N=Nc1ccc(Cl)cc1 (stereo unspecified)	-12	-0.5	3	1.3%	-13	-16
8	Cn1c(N/N=C/c2c[nH]c3ccccc23)nc2ccccc21	11	-1.0	6	-1.1%	23	-29
9	CCOc1ccc(OC(=O)c2cccc(S(=O)(=O)N3CCN(C)CC3)c2)cc1	-2.3	0.3	35	0.4%	2	-8
10	O=C(CN1CCCCC1)N/N=C/c1ccc(Cl)cc1Cl	-4.3	1.1	0	0.0%	-4	5
11	O=C(NCc1ccc2c(c1)OCO2)c1cc(=O)[nH]c2ccccc12	-2.0	-0.7	-3	0.9%	-2	4
12	CCc1ccc(NC(=O)CCC(=O)N2CCSc3ccccc32)cc1	-1.0	1.6	7	1.4%	-4	-3
13	COc1ccc(C(=O)/C(C#N)=N/Nc2ccccc2[N+](=O)[O-])cc1	-6.2	-0.1	3	?	-15	0
14	COc1ccc(-n2nc3c(c2NC(=O)COc2cccc(OC)c2)CS(=O)(=O)C3)cc1	2.9	0.8	0	-3.2%	22	-5
15	Cc1cccc(-c2noc(C3CCCCC3)n2)c1	-3.0	-0.9	-2	2.7%	-6	16
16	CC1CCCN(CCCNC(=O)c2cc3c(s2)-c2ccccc2OC3)C1 (stereo unspecified)	3.2	0.2	18	-1.1%	-18	8
17	Cc1csc2nc(CNC(=O)C3CCCCC3)cn12	-5.7	0.7	0	0.8%	-11	4
18	COc1ccc(C)cc1NC(=O)CCN1CCN(c2ccccc2)CC1	?	2.5	11	1.6%	-13	1
19	c1csc(C2CCCN2c2nc3nonc3nc2NC2CC2)n1 (stereo unspecified)	1.9	-0.7	-5	1.6%	1	-1
20	COc1ccc(OC)c(NC(=O)c2ccc(N3C(=O)C4CC=C(C)CC4C3=O)cc2)c1 (stereo unspecified)	-2.5	0.2	11	1.4%	-4	-11
21	Cc1cc(C)cc(NC(=O)c2cc(S(=O)(=O)N3CCCC3)ccc2F)c1	/	2.3	32	1.9%	/	/
22	O=C(OCCN1CCOCC1)c1ccc(OCCN2CCOCC2)cc1	0.4	0.2	7	0.2%	-24	17
23	Fc1ccc(-c2nc3c(Cl)cc(C(F)(F)F)cn3c2Cc2cccc(F)c2)cc1	-2.7	1.5	/	-0.7%	-7	2
24	COc1ccc(-n2cc(C(=O)N(CCN(C)C)Cc3ccccc3)c3ccccc3c2=O)cc1	/	0.0	-6	-0.1%	/	/
25	Cc1ccc(-c2cc(C(=O)N/N=C\c3cnn(C)c3C)c3ccccc3n2)cc1C	-1.5	-1.0	-14	-1.0%	-1	-25
26	COc1cc(C2CC(=O)c3c([nH]c(C(=O)OCc4ccc(C)cc4)c3C)C2)cc(OC)c1OC (stereo unspecified)	/	0.0	-10	0.8%	/	/
27	CC(=O)N1c2ccccc2C(C)=CC1(C)C	-10	1.1	35	-0.1%	-5	0
28	Cc1ccccc1Cc1c(C)nc2nc(SCC(=O)N(C)c3ccccc3)nn2c1C	/	-0.3	-13	-0.2%	/	/
29	CC1CCCC(C)N1C(=O)Cn1nnc(-c2ccccc2)n1 (stereo unspecified)	6.3	1.3	-17	-0.7%	-6	-1
30	CC#CCOCC1CN(C)C(=O)O1 (stereo unspecified)	-3.5	0.3	-13	0.4%	-4	-4
31	CC1CCC2(CC1)NC(=O)N(NC(=O)c1cccs1)C2=O (stereo unspecified)	5.1	-0.4	12	2.6%	3	5
32	CCn1c(SCc2ccc(C#N)cc2)nnc1-c1cccc(Cl)c1	-2.2	1.0	2	0.1%[38.3 µM]	-16	5
33	COC(=O)CSc1nnc(CNc2ccc(Cl)cc2)n1-c1ccccc1	-2.3	0.3	24	-0.2%	-10	0
34	CCn1c2ccccc2c2nnc(SCC(=O)NC3CCS(=O)(=O)C3)nc21 (stereo unspecified)	-0.6	1.7	16	3.8%	-2	8
35	CCn1c(-c2nn(-c3ccccc3)ccc2=O)n[nH]c1=S	4.4	-0.4	91	2.5%	-8	9
36	CC(=O)O[C@H]1[C@H](O)[C@H](Oc2c(O)c(C)c3c4c2[C@@H](C)CC[C@@H]4[C@@H](C)C[C@H]3C=C(C)C)O[C@@H](C)[C@H]1O	-1.9	0.6	2	-1.2%	/	-15
37	COc1cc(NS(=O)(=O)c2cc(C(=O)N3CCN(C(C)=O)CC3)ccc2OC)cc(OC)c1	-0.6	-0.6	-4	-1.1%	-2	7
38	C=CCC[C@@H](Cc1ccc(F)cc1)C(=O)OC[C@@H](Cc1c[nH]c2ccccc12)NC(=O)[C@H](CC=C)CC(=O)N[C@H](CO)Cc1ccccc1	-7.4	0.8	-11	5.9%	-7	12
39	Cc1cccc(-c2nnc(N)s2)c1	2.0	0.5	-22	0.3%	-8	9
40	CCN(CC)c1ccc(NC(=O)COc2ccc(-n3cnnn3)cc2)cc1	3.7	-1.1	28	3.3%	-3	-18
41	COc1ccccc1NC(=O)c1ccc(S(=O)(=O)N(C)C)cc1	-2.8	-0.8	-3	2.6%	-4	3
42	CCC(C)(C)NC(=O)CN(C(=O)CCC(=O)Nc1nccs1)c1ccc2c(c1)OCO2	-1.4	2.2	26	-0.7%	-3	2
43	CC(=O)NCCN=C(C)c1sc2ccccc2c1O	-2.4	-0.7	4	18%	-8	2
44	O=C(NCCS(=O)(=O)N1CCN(c2ccc(F)cc2)CC1)C1CC(=O)N(c2ccccc2)C1 (stereo unspecified)	-0.5	0.7&1.5	27&-6	1.8%&-0.7%	6	-1
45	CCOC(CNC(=O)Cn1nc(C)c2ccccc21)OCC	-6.2	-0.1	12	0.1%	-3	3
46	COc1ccc2c(CNCc3cccs3)c(C(=O)O)n(Cc3cccc(F)c3)c2c1	/	2.0	-21	3.3%	/	/
47	CC(C)(C)OC(=O)NC(Cc1ccccc1)C(=O)NC(CSC1CCCCO1)C(=O)NN (stereo unspecified)	-3.6	0.9	15	0.8%	-2	0
48	COc1ccc(CNc2nc(-c3cccnc3)nn2C(C)=O)cc1	-1.3	-0.5	-17	-0.5%	-13	10
49	CC(C)CC(C(=O)NC1CCCCC1)N(Cc1ccccc1)C(=O)c1snc(C(N)=O)c1N (stereo unspecified)	0.4	3.5	5	3.9%	-10	-13
50	O=c1oc2c(F)cc(F)cc2cc1S(=O)(=O)c1ccc(F)cc1	/	15	0	1.9%	/	/
51	CC1(C)CC(=O)C=C(N2CCOCC2)C1	-0.3	-0.6	-6	-0.4%	2	-2
52	O=C(CCC1CCCCC1)Nc1ccccc1-c1ccccc1	0.1	-1.0	5	4.4%	0	13
53	C=CCNCc1ccc(C(=O)NCCCCCCC)cc1[N+](=O)[O-]	3.5	0.0	-7	-0.6%	-3	8
54	CCSc1nnc2c(n1)OC(c1cc(OC)c(OC)c(OC)c1)Nc1ccccc1-2 (stereo unspecified)	/	-0.2	3	2.3%	/	/
55	O=C(C1CCCN1S(=O)(=O)c1ccc(Cl)cc1)N1CCCCC1 (stereo unspecified)	-2.7	0.4	-12	0.3%	21	3
56	COc1ccc(S(=O)(=O)Nc2ccccc2N2CCOCC2)cc1OC	0.9	1.3	4	0.3%	-1	6
57	COc1ccc(C(=O)CSc2nnc(CNc3ccc(C)cc3C)o2)cc1	-0.3	0.4	-7	21%	-5	1
58	Cc1c(C(=O)NCC(C)C)sc2nc(-c3ccc(F)cc3)cn12	-4.8	-0.4	-7	2.9%	-9	5
59	COc1ccc(CC(=O)NCc2n[nH]c(=S)n2-c2ccccc2OC)cc1	0.8	0.9	10	0.3%	-4	-4
60	CC1SC(=Nc2ccccc2)N(S(=O)(=O)c2ccccc2)C1=O (stereo unspecified)	1.5	0.1	5	-1.6%	-8	0

Other entries follow:
nr	SMILES	D2 ag	TRPML1 agonist	TRPML1 blocker	PINK1 modulator	D2 PAM	Six1-Eya2 inh
61	Cc1ccc(CNC(=O)C2CC3Cn4c(nc5cc(C)c(C)cc54)C3N2C)o1 (stereo unspecified)	-0.1	-0.1	30	2.0%	-3	2
62	Cc1cc(C(=O)NC2CCCN(Cc3ccccc3F)C2)no1 (stereo unspecified)	2.0	0.8	-7	0.6%	-12	7
63	O=C(C[n+]1ccsc1)c1ccccc1	-4.5	0.0	-19	0.5%	-17	20
64	CC(=O)N1CCN=C1SCc1ccccc1Cl	-6.2	0.3	-5	0.6%	-7	8
65	O=C(Nc1c2c(nn1-c1ccc(F)cc1)CSC2)c1ccc(S(=O)(=O)N2CCOCC2)cc1	1.0	0.6	10	?	5	-3
66	CC(=O)/C(C#N)=C1\NC(=O)C(Cc2ccc(C)c(Cl)c2)S1 (stereo unspecified)	1.2	14	11	-0.7%	-3	-8
67	Cc1cc(N2CCN(C(c3ccccc3)c3ccccc3)CC2)n2ncnc2n1	-1.7	0.5	2	-1.6%	-3	1
68	N#C/C(=C\c1ccc(N2CCOCC2)o1)C(=O)Nc1ccc(O)cc1	-7.8	17	12	?	-13	?
69	O=C1c2oc3ccc(F)cc3c(=O)c2C(c2ccccc2)N1CC1CCCO1 (stereo unspecified)	1.9	2.8	7	2.7%[38.3 µM]	-2	2
70	Cc1cccnc1NC(=O)Cn1nc(C)c([N+](=O)[O-])c1C	-0.2	-0.9	8	0.7%	-2	-4

Compound profiles, as listed above. Order of screens: D2 ag	TRPML1 agonist	TRPML1 blocker	PINK1 modulator	D2 PAM	Six1-Eya2 inh
O=C1c2oc3ccc(F)cc3c(=O)c2C(c2ccccc2)N1CC1CCCO1 (stereo unspecified) is entered as 1.9	2.8	7	2.7%[38.3 µM]	-2	2
Cc1ccc(CNC(=O)C2CC3Cn4c(nc5cc(C)c(C)cc54)C3N2C)o1 (stereo unspecified) is entered as -0.1	-0.1	30	2.0%	-3	2
O=C(Nc1c2c(nn1-c1ccc(F)cc1)CSC2)c1ccc(S(=O)(=O)N2CCOCC2)cc1 is entered as 1.0	0.6	10	?	5	-3
Cc1cc(C(=O)NC2CCCN(Cc3ccccc3F)C2)no1 (stereo unspecified) is entered as 2.0	0.8	-7	0.6%	-12	7
Cc1cccnc1NC(=O)Cn1nc(C)c([N+](=O)[O-])c1C is entered as -0.2	-0.9	8	0.7%	-2	-4
